VDR inh: blocks the human vitamin D receptor; P11473; VDR-SRC2-3 peptide fluorescence polarization, 2 h; Potency, µM, for the others: max response, negative = inhibition, actives largely listed as inhibitors; actives 0.93% (n = 400,000); active means well fitted inhibition curve with a large enough effect; inconclusive means small, poorly fitted or top-dose-only effect, or another doubt; inactive means no such curve, though single readings can be large or run the other way; further: series mostly up to about 120 µM
Target sequence (P11473 whole entry, looked up): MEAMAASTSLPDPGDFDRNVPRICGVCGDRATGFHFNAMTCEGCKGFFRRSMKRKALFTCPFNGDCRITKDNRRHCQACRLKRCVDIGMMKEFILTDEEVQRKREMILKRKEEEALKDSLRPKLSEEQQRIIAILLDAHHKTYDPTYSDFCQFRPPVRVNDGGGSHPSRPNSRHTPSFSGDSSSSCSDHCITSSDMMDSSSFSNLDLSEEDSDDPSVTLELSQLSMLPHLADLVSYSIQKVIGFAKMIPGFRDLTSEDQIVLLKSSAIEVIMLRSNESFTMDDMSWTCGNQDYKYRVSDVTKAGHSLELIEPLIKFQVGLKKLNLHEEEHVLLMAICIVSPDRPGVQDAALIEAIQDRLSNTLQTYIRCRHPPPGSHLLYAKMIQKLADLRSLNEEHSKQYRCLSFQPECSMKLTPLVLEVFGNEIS
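Inhibition of the VDR/SRC2-3 peptide interaction is quantified by fluorescence polarization. Compounds (23 nl, pintool) incubate with the reagents for 2 hours at ambient room temperature.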
Numbers without * were called inactive; ? = inconclusive. On the % scale 0 is the no-effect control and ±100 the full control effect; potency means the concentration at half of the fitted maximal effect. These rows are one share of the data; the hit share may differ from the screen's.

compound	VDR inh
CCC1ON(C(C)C)C2c3nc4ccccc4n3CC12 (stereo unspecified)	-24%
Cc1ccc(NC(=O)CSc2nc(-c3ccc(F)cc3)nc3c2Cc2c(CO)cnc(C)c2O3)cc1C	-8%
CC(C)(C)c1ccc(C(=O)Nc2ccc(N3CCOCC3)cc2)cc1	2%
Oc1c(C(Nc2cccc(C(F)(F)F)c2)c2cccnc2)ccc2cccnc12 (stereo unspecified)	?
CCOC(=O)[C@H]1[C@H]2COc3cc(OC)ccc3[C@@H]2N2C(=O)CN(CCc3c[nH]c4ccccc34)C(=O)[C@@]12C	-25%
Nc1nc(SCc2ccccc2)c2ncn(CCO)c2n1	1%
Cc1cccn2c(=O)c3cc(S(=O)(=O)c4ccc(Br)cc4)c(=N)n(C4CCCC4)c3nc12	-14%
COC(=O)c1nnn(-c2nonc2N)c1CSc1nnc(N)s1	-2%
COC(=O)C(NC(C)=O)(Nc1nc2c(s1)CCCC2)C(F)(F)F (stereo unspecified)	-17%
Nc1c(N(Cc2ccco2)C(=O)c2ccc(Cl)cc2)c(=O)[nH]c(=O)n1Cc1ccccc1	?
CCOC(=O)c1c(C)[nH]c(C(=O)N2CCC(C(=O)OCC)CC2)c1C	-1%
O=C(O)c1ccc(COc2ccc(CO)cc2Cl)cc1	-4%
O=C(N[C@@H](Cc1ccccc1)C(=O)N1CCC2(CC1)NCCc1[nH]cnc12)c1cccc(F)c1	-1%
CC(C)c1nnc(NC(=O)CCc2ccccc2)s1	-4%
NNc1nc(-c2ccccc2)c2cc(Br)ccc2n1	13%
CN(C(=O)c1ccc(S(=O)(=O)N2CCCC2)cc1)C1CCCCC1	-5%
CC(=O)Nc1ccc(S(=O)(=O)Nc2cccc(N(C)S(C)(=O)=O)c2)cc1	7%
COc1ccc(-c2c3c(nc4sc5c(Cl)nc(C)nc5c24)CCC3)cc1	-7%
COc1ccc2c(C)cc(N3CCN(c4ccc(F)cc4)CC3)nc2c1	-6%
Cc1cc(=O)oc2cc(OCC(=O)OCC(=O)Nc3ccc(C(N)=O)cc3)ccc12	10%
COc1cc(C(=O)NCC(=O)N2CCN(S(=O)(=O)c3cc(C)ccc3C)CC2)cc(OC)c1OC	-2%
Cc1ccc(C(=O)NNC(=O)c2cccc(S(=O)(=O)N3CCOCC3)c2)cc1	0%
Cc1c(OCC(=O)NCC2CCC(C(=O)O)CC2)ccc2c3c(c(=O)oc12)CCC3 (stereo unspecified)	2%
COC(=O)c1ccc(NC(=O)Nc2ccc(C)cc2)cc1	1%
Cn1nccc1C(=O)N1CCN(c2cccc(Cl)c2)CC1	4%
O=C1NCCCc2nc(Oc3ccccc3)sc21	8%
Cc1nc2c(-c3ccc(Cl)cc3)cnn2c(N)c1-c1ccc(F)cc1	-25%
Cc1ccc2[nH]c3c(c2c1)CN(C(=O)CN(C)CC1OCCO1)CC3	-2%
N#CCc1ccc(NC(=O)c2ccc(S(=O)(=O)N3CCOCC3)cc2)cc1	-14%
Cc1ccc(CN2CCN(/N=C/c3cccs3)CC2)cc1	-12%

Sorted by the number under VDR inh (largest number first): some entries from above
molecule	VDR inh
COc1cc(C(=O)NCC(=O)N2CCN(S(=O)(=O)c3cc(C)ccc3C)CC2)cc(OC)c1OC	-2%
CN(C(=O)c1ccc(S(=O)(=O)N2CCCC2)cc1)C1CCCCC1	-5%
COc1ccc(-c2c3c(nc4sc5c(Cl)nc(C)nc5c24)CCC3)cc1	-7%

(continued)
compound	VDR inh
CCOC(=O)c1c(C)oc2ccc(N(C(=O)c3ccncc3)S(=O)(=O)c3ccc(Br)cc3)cc12	-8%
CC(C)(c1ccccc1)c1ccc(OCC2CO2)cc1 (stereo unspecified)	0%
CC(=O)O[C@H]1[C@H](O)[C@H](Oc2c(O)c(C)c3c4c2[C@@H](C)CC[C@@H]4[C@@H](C)C[C@H]3C=C(C)C)O[C@@H](C)[C@H]1O	-6%
CCC1(c2ccccc2)NC(=O)N(CC(=O)NCc2ccccc2OC)C1=O (stereo unspecified)	-1%
CCNS(=O)(=O)c1ccc(C(=O)OCC(=O)N2CCCc3ccccc32)cc1	-5%
Cc1ccc(-c2nc(S(=O)(=O)c3ccc(C)cc3)c(SCC(=O)NCC3CCCO3)o2)cc1 (stereo unspecified)	-6%
Cc1noc(NS(=O)(=O)c2ccc(NC(=O)CSc3nc4c(cc3C#N)CCCC4)cc2)c1C	-12%
CCOC(=O)Cn1cnc2c(nnn2-c2cccc(Cl)c2)c1=O	12%
CC(=O)Nc1ccc(NC(=O)c2nc(S(=O)(=O)Cc3cccc(C)c3)ncc2Cl)cc1	?
COc1ccccc1NS(=O)(=O)c1ccc2[nH]c(=O)[nH]c2c1	5%
Cc1ccc(NC(=O)c2ccc(S(=O)(=O)N(C)c3ccccc3)cc2)cc1S(=O)(=O)N1CCOCC1	8%
Cc1ccc(OCC(=O)N2c3ccccc3CC2C)c([N+](=O)[O-])n1 (stereo unspecified)	-8%
COc1ccc(NC2CCCN(C(=O)c3cn(C)c4ccccc34)C2)cc1 (stereo unspecified)	-7%
Nc1c(-c2nc(-c3cccs3)no2)nnn1-c1cccc(F)c1	2%
O=[N+]([O-])c1ccc(Cl)c(NC(=S)N2CCCC2)c1	3%
Cc1onc(-c2c(Cl)cccc2Cl)c1C(=O)NN1CCCCCC1	10%
COc1ccc(Oc2nc3ccccc3n(C)c2=O)cc1	-1%
CCCCCn1c(=N)n(CC(O)COc2cccc(C)c2)c2ccccc21 (stereo unspecified)	-7%
O=C(c1ccc2c(c1)N(Cc1ccc(Cl)cc1)C(=O)c1ccccc1S2(=O)=O)N1CCN(Cc2ccccc2)CC1	-9%
COc1cccc(CNC(=O)c2ccccc2NC(=O)C2=C(C)OCCS2)c1	12%
O=C(Nc1cccc(S(=O)(=O)N2CCCCC2)c1)c1ccc([N+](=O)[O-])o1	2%
Cc1onc(-c2c(Cl)cccc2Cl)c1C(=O)Nc1ccc(C(N)=O)cc1	3%
COc1ccc(C(C(=O)NCc2ccccc2)N(C(=O)Cn2nnc3ccccc32)c2ccc(F)cc2)cc1 (stereo unspecified)	7%
Cc1ccc(NC(=O)C(C)Sc2nnc3ccccn23)cc1 (stereo unspecified)	-6%
Cc1cccc(C(=O)Nc2cccc(C(=O)N/N=C/c3ccccn3)c2)c1	-6%
OCCCc1nc2n(n1)C(c1ccccc1)C=C(c1ccccc1)N2 (stereo unspecified)	-3%
COc1ccc(S(=O)(=O)N2CCCCCC2)cc1C(=O)N(C)Cc1ccc(C(C)(C)C)cc1	?
CCc1ccccc1NC(=O)CN(C)S(=O)(=O)c1ccc2c(c1)c(=O)n(C)c(=O)n2C	6%
CCc1nnc(NC(=O)CSc2nnc3c(C)cc4c(C)ccc(C)c4n23)s1	1%
COCCNC(=S)Nc1ccc(S(=O)(=O)Nc2ncccn2)cc1	8%

3 structures already listed, arranged by molar mass, ascending.
compound	VDR inh
Cc1cccc(C(=O)Nc2cccc(C(=O)N/N=C/c3ccccn3)c2)c1	-6%
N#CCc1ccc(NC(=O)c2ccc(S(=O)(=O)N3CCOCC3)cc2)cc1	-14%
CCOC(=O)c1c(C)oc2ccc(N(C(=O)c3ccncc3)S(=O)(=O)c3ccc(Br)cc3)cc12	-8%

Continued:
compound	VDR inh
CC(C)Oc1ccc(CNC(=O)CN2C(=O)CCc3cc(S(=O)(=O)N4CCCCC4)ccc32)cc1	3%
CCOc1cc(C(=O)Nc2cccc(C(C)=O)c2)ccc1OCC(=O)N1CCCCC1	-26%
O=C(NCc1cn(-c2ccccc2)nc1-c1ccccc1)c1cccc([N+](=O)[O-])c1	-2%
Cc1ccc(C)c(C(=O)CCC(=O)OCn2nnc3ccccc3c2=O)c1	29%
CC1(C)C(=O)C2(CCCCC2)C(=O)OC1c1cccc([N+](=O)[O-])c1 (stereo unspecified)	-4%
O=C(N/N=C/c1ccccc1C(=O)O)c1cccc(S(=O)(=O)Nc2cc(Cl)ccc2Cl)c1	?
CC1CCC2(CC1)SCC(=O)N2c1ccccc1 (stereo unspecified)	-12%
COc1ccccc1N1CCN(C2CCCN(Cc3ccccc3OCCO)C2)CC1 (stereo unspecified)	18%
O=C(c1ccccc1)N1CCN(c2ccc(NCc3ccc4c(c3)OCO4)cc2)CC1	11%
O=S(=O)(NC(=S)Nc1ccccc1)c1ccc(F)cc1	?
C[C@H]1CCC[C@]2(O[C@@H](CCO)C[C@@H](O)[C@@H]2O)O1	-15%
COc1ccc(N2CCN(C(=S)Nc3ccc(C)cc3C)CC2)cc1	-5%
O=C(/C=C/c1ccc2ccccc2n1)N1CCN(S(=O)(=O)c2ccc(F)cc2)CC1	3%
Cc1ccccc1C(O)c1ccncc1 (stereo unspecified)	5%
Cc1ccc(C)c(Cn2c(=O)n(CCCC(=O)NCc3ccco3)c(=O)c3ccccc32)c1	-13%
COc1ccc(-c2cc(C)no2)cc1S(=O)(=O)N1CCCN(Cc2ccccc2Cl)C1	3%
Cc1ccc(S(=O)(=O)N2CCN(C(=O)c3ccnn3C)CC2)cc1C	-1%
CSC1=NS(=O)(=O)c2c(C)nn(C)c2S1	25µM*
Cc1ccc2c(c1)C(c1ccccc1)CC(=O)O2 (stereo unspecified)	-1%
Cc1ccc(-c2nnc3ccccc3c2C(=O)Nc2ccccc2F)cc1	3%
O=C(CN(C(=O)c1csnn1)c1cccc2ccccc12)NCc1ccccc1	-7%
O=c1oc2ccccc2n1Cn1c(=O)oc2ccccc21	-3%
C=C(C)COc1ccc(-c2nc(N)ncc2-c2ccc(Br)cc2)c(O)c1	26%
COc1ccc(N(CC(=O)NN=C2CCCCCCC2)S(=O)(=O)c2ccccc2)cc1	-21%
Brc1cccc(-c2nn(-c3ccccc3)c3c2cnc2cc4c(cc23)OCO4)c1	-10%
O=C1NC(c2ccccc2)C(C(=O)c2cccs2)=C1O (stereo unspecified)	5%
Cc1oc2c(C)c3oc(=O)c(CCC(=O)NCCCn4ccnc4)c(C)c3cc2c1C	-22%
CCOc1ccc(Cn2ccnc2CCl)cc1[N+](=O)[O-]	19%
CC1CC(C)(C)NC(=S)N1CC(=O)NCc1ccc2c(c1)OCO2 (stereo unspecified)	-2%
Cc1ccc(CS(=O)(=O)c2ncc(Cl)c(C(=O)Nc3nc4ccc(C)cc4s3)n2)cc1	?

An excerpt of these results, field by field:
CSC1=NS(=O)(=O)c2c(C)nn(C)c2S1
  VDR inh = 25µM*

O=S(=O)(NC(=S)Nc1ccccc1)c1ccc(F)cc1
  VDR inh = ?

Cc1ccc(-c2nnc3ccccc3c2C(=O)Nc2ccccc2F)cc1
  VDR inh = 3%

More compounds follow.
compound	VDR inh
Cc1cc(NS(=O)(=O)c2ccc(NC(=O)CSc3nc4ncc(Br)cc4[nH]3)cc2)nc(C)n1	-1%
COc1cc(OC)cc(C(=O)NCC(=O)Nc2ccc(OC)c(Cl)c2)c1	16%
COc1ccc(CCNC(=O)CC(=O)N/N=C/c2ccc(C(=O)O)cc2)cc1OC	-7%
c1ccc(CSc2ccc(-c3cccnc3)nn2)nc1	-3%
C=C[C@](C)(CC[C@@]1(C)C(C)CC(OC2OC(C)C(OC3OC(COC(C)=O)C(O)C(O)C3O)C(O)C2O)[C@@]2(C)C(C)=CCCC12)OC1OC(C)C(O[C@@H]2O[C@@H](C)C(O)C(O)[C@H]2O)C(O)C1O (stereo partly specified)	15%
COC(=O)c1c(-c2ccsc2)sc2ccc(-c3cc(OC)c(OC)c(OC)c3)cc12	-17%
CCOc1cc(CNCC2CCCO2)cc(Br)c1OCC(N)=O (stereo unspecified)	6%
CCN(c1ccccc1)S(=O)(=O)c1ccc(Cl)c(NC(=O)COC(=O)c2ccc(O)cc2)c1	-26%
COc1ccccc1NC(=S)N(Cc1ccco1)Cc1cc2cccc(C)c2[nH]c1=O	-6%
COc1cccc(-n2cc(C(=O)OCc3ccc(F)c(F)c3)c3ccccc3c2=O)c1	-1%
Cc1ccccc1-c1nnc(SCc2ccc(F)cc2)o1	-10%
O=C(Nc1ccccc1F)c1c[nH]c(=O)[nH]c1=O	-14%
CCC(=O)Nc1sc2c(c1C(=O)Nc1ccccc1C)CCC(C)C2 (stereo unspecified)	10%
CCOC(=O)C(=O)NCC(c1cccs1)S(=O)(=O)c1ccc(F)cc1 (stereo unspecified)	-6%
O=C(CCCc1ccccc1)NC1CC(=O)N(c2ccc(F)cc2)C1 (stereo unspecified)	10%
O=C(Cc1ccc(Cl)cc1)Nc1ccccc1C(=O)N1CCCC1	-9%
Cc1ccc(N2CCN(C(=O)c3cc(S(=O)(=O)N4CCCCC4)c[nH]3)CC2)c(C)c1	13%
O=C(CSCc1ccc(F)cc1)N1CCc2c([nH]c3ccccc23)C1c1ccccc1 (stereo unspecified)	4%
O=C(Nc1nc(-c2ccccc2)cs1)c1ccc2c(=O)n3c(nc2c1)CCCCC3	7%
CCCC(=O)Nc1ccc(OC[C@@H](O)CNC(C)C)c(C(C)=O)c1	6%
CCC(Sc1ccc(C(=O)O)cc1)C(=O)O (stereo unspecified)	12%
CC(C)(C)C(=O)c1cnc(Nc2ccccc2)s1	1%

Screening data as filed in PubChem BioAssay.
